eIF4H inh: inhibitors of RNA binding by human eIF4H; Q15056; eIF4H fluorescence polarization binding assay; inhibition, % at 35 µM; actives 0.94% (n = 290,000); AID 2012;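 active = 50% or more with normal probe brightness, or confirmed in later tests; inconclusive = above 50% with abnormal brightness, or retests that disagree; inactive = below 50% or failed in later tests; about a fifth of its hits are not listed in these tables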;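 also: calls also rest on retests at 20 µM and on dose response follow-up; 0% = protein and probe with vehicle and 100% = probe without protein; strong numbers were not always called active; many hits fall short of the cut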
Rce1 inhib: inhibitors of yeast Ras-converting enzyme; Q03530; yeast membranes, quenched prenylated peptide cleavage fluorescence; calls only; actives 0.27% (n = 290,000); AID 2563;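 active = fall in fluorescence gain of 50% or more versus controls, with final raw signal at or below 3038400; inconclusive = same 50% fall but final raw signal above 3038400; inactive = fall in fluorescence gain under 50%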;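 also: plate controls were neutral control wells for no effect and wells lacking membranes for full effect; tested at 10 µM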
PABP polyA inh: blocks human PABP binding to poly(A) RNA | fluorescence polarization | inhibition, % at 35 µM | actives 1% (n = 290,000) | AID 2014;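 active = 50% or more with normal probe brightness, or confirmed in later tests; inconclusive = above 50% with abnormal brightness, or retests that disagree; inactive = below 50% or failed in later tests; about a fifth of its hits are not listed in these tables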;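 also: calls also rest on retests at 20 µM and on dose response follow-up; controls were probe without protein and protein plus probe with vehicle; some compounds called inactive have numbers as strong as hits; many hits fall short of the cut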
Target sequence (P11940 whole entry, looked up): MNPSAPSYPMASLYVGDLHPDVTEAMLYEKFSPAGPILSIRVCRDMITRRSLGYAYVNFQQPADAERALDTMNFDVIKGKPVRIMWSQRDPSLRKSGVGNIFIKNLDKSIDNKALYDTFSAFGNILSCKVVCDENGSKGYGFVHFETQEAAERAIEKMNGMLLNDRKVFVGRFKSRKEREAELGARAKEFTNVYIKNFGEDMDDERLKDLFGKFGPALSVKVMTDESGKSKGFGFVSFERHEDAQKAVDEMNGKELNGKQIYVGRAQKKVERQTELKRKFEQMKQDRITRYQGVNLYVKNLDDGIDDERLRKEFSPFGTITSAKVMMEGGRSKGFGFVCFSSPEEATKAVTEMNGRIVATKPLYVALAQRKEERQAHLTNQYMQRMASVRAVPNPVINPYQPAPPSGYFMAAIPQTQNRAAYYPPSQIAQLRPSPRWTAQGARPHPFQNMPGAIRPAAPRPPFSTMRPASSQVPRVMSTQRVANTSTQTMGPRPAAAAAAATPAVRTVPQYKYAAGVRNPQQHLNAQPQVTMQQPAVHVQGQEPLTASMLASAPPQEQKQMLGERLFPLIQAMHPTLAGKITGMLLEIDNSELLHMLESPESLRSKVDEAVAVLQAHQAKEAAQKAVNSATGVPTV
CSC inhib: blocks cancer stem cells | cancer stem cell-like cells viability, luminescence | inhibition, % at 7.5 µM | actives 1.1% (n = 300,000);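 active = mean at 75% or more and at least half the replicates too; inconclusive = mean and replicates disagree; tested in HMLE shEcad cells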;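 also: 0% = median of negative and 100% = median of positive control wells; the first replicate is given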
Yeast UUG start: yeast start codon fidelity modulation; S. cerevisiae UUG-firefly luciferase reporter, luminescence/redox ratio; actives 0.13% (n = 350,000); AID 602363; activity score, % at 18.7 µM;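 active = replicate mean at a twofold rise or more, about +100% in these data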;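 also: firefly luciferase made from a UUG start codon reports start codon fidelity; reporter light over untreated wells divided by growth signal over untreated wells; some hits fall short of that in this replicate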
Env fusion inh: inhibitors of HIV Env-mediated cell fusion. inhibition, % at 12.3 µM. HeLa-JRFL Env/CEM21 cell fusion, luciferase. actives 1.1% (n = 360,000). AID 651610;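 active = mean replicate inhibition score of at least 50 and every replicate individually at or above 50; inconclusive = only one of the two criteria met; inactive = mean below 50 and not all replicates reaching 50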;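 also: 0% = plate neutral controls and 100% = maraviroc near 300 nM; one replicate is shown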
MT1-MMP act inh: MT1-MMP (human) activation inhibition | P50281 | HT1080 RFP-PRO-GFP cells, GFP/RFP ratio fluorescence, overnight; percent of plate control window, DMSO zero | GFP/RFP ratio change, % at 20 µM | actives 0.061% (n = 360,000) | AID 651647;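 active = GFP/RFP ratio change of at least 30% with cell ATP level not reduced by more than half and red fluorescence within 50% of control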; also: strong numbers were not always called active
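Assay system – RFP-PRO-GFP reporter HT1080 cells · Compound dosing – single dose of 20 µM compound, 1% DMSO final · Incubation – overnight compound exposure at 37 °C · Measure – GFP/RFP fluorescence ratio · Benchmarks – DMSO wells and RFP-L50D-GFP cells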
eIF4H inh retest: further read-out of eIF4H inh, marked with its call; inhibition, %; compound at 20 µM; confirmation average;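 mean of two retest wells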
PABP polyA inh retest: further read-out of PABP polyA inh, marked with its call; inhibition, %; compound at 20 µM; confirmation repeats;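 mean of two retest wells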
MT1-MMP act inh RFP: further read-out of MT1-MMP act inh, marked with its call; RFP signal change, %; measured here: RFP expression control read;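 0 = vehicle wells; hits needed this value within 50% of zero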
An asterisk follows results filed as active.

Screening COc1ccc(OCC(=O)Nc2cc(S(=O)(=O)N3CCCC3)ccc2Cl)cc1 returned Yeast UUG start -22.8, Env fusion inh inactive, MT1-MMP act inh 3.1 and MT1-MMP act inh RFP -0.7.
Screening CCOc1ccccc1/C=C/c1onc(C)c1S(=O)(=O)N1CCC(C(=O)N2CCCCCC2)CC1 returned Rce1 inhib inactive, CSC inhib -2.4, Yeast UUG start -10.6, Env fusion inh 18.5, MT1-MMP act inh -11.0 and MT1-MMP act inh RFP -19.2.
Screening CC1CCN(C(=O)C2CCCCN2S(=O)(=O)c2cccc([N+](=O)[O-])c2)CC1 (stereo not drawn) returned eIF4H inh 9.6, Rce1 inhib inactive, PABP polyA inh -2.6, CSC inhib 5.1, Env fusion inh 45.9, MT1-MMP act inh -2.6 and MT1-MMP act inh RFP -2.3.
NS(=O)(=O)c1ccc(NC(=O)COC(=O)COc2ccc(Br)cc2)cc1 was read as eIF4H inh 9.8, Rce1 inhib inactive, PABP polyA inh 13.1, Yeast UUG start -0.5, Env fusion inh 0.1, MT1-MMP act inh -0.7 and MT1-MMP act inh RFP 3.2.
CCc1cc(-c2nc(N)ncc2-c2ccc(Br)cc2)c(O)cc1OC was read as eIF4H inh -6.8, Rce1 inhib inactive, PABP polyA inh -5.3, CSC inhib inconclusive, Yeast UUG start -5.4, Env fusion inh 6.0, MT1-MMP act inh 3.2 and MT1-MMP act inh RFP -1.4.
For COc1cc(C2CC(c3cccnc3)=NN2c2ccc(F)cc2)cc(OC)c1OC (stereo not drawn) the results were eIF4H inh 0.5, Rce1 inhib inactive, PABP polyA inh -4.5, CSC inhib 4.8, Env fusion inh -29.4, MT1-MMP act inh 3.6 and MT1-MMP act inh RFP 9.3.
CC1Cc2nc(SCC(=O)c3ccccc3)n(Cc3ccccc3)c(=O)c2S1 (stereo not drawn) was read as eIF4H inh -3.7, Rce1 inhib inactive, PABP polyA inh -11.6, CSC inhib -2.4, Yeast UUG start -8.5, Env fusion inh 24.9, MT1-MMP act inh 0.0 and MT1-MMP act inh RFP -8.4.
`CC(=O)Oc1ccccc1C(=O)Nc1ccccc1` gave Rce1 inhib inactive, CSC inhib -3.1, Yeast UUG start -11.3, Env fusion inh -16.5, MT1-MMP act inh 0.5 and MT1-MMP act inh RFP -7.1.
CCCCN(C(=O)Cc1ccc2c(c1)OCCO2)c1c(N)n(CC(C)C)c(=O)[nH]c1=O was read as Yeast UUG start 0.3, Env fusion inh 25.4, MT1-MMP act inh 2.6 and MT1-MMP act inh RFP 4.6.
Screening CCOc1ncccc1C(=O)Nc1ccccc1F returned eIF4H inh 0.2, Rce1 inhib inactive, PABP polyA inh 2.3, CSC inhib 8.9, Yeast UUG start -8.6, Env fusion inh -11.1, MT1-MMP act inh -0.6 and MT1-MMP act inh RFP -0.5.
`Cc1nn(CC(=O)OCC(=O)Nc2cccc(S(N)(=O)=O)c2)c(C)c1[N+](=O)[O-]` gave CSC inhib -10.5, Yeast UUG start -16.1, Env fusion inh 5.0, MT1-MMP act inh -0.3 and MT1-MMP act inh RFP 1.8.
Screening CCOC(=O)CC(=O)CSc1nc2c(cc1C#N)CCCCCC2 returned eIF4H inh 10.6, Rce1 inhib inactive, PABP polyA inh 23.7, CSC inhib -6.6, Yeast UUG start -9.3, Env fusion inh 1.1, MT1-MMP act inh -7.9 and MT1-MMP act inh RFP 0.2.
For CC(C)N1CC(C(=O)Nc2ccc(S(=O)(=O)N3CCCCC3)cc2)CC1=O (stereo not drawn) the results were eIF4H inh -4.7, Rce1 inhib inactive, PABP polyA inh 3.0, CSC inhib -13.0, Yeast UUG start 2.6, Env fusion inh -9.3, MT1-MMP act inh -7.2 and MT1-MMP act inh RFP -1.8.
For CCOC(=O)N/N=C(/c1ccccc1)C1CCCCC1 the results were eIF4H inh -5.0, Rce1 inhib inactive, PABP polyA inh 5.2, CSC inhib -6.2, Env fusion inh 4.9, MT1-MMP act inh -4.8 and MT1-MMP act inh RFP -3.7.
`NC(=O)c1ccsc1NC(=O)COC(=O)CCOc1ccccc1` gave eIF4H inh 17.8, Rce1 inhib inactive, PABP polyA inh 15.9, CSC inhib -14.3, Yeast UUG start -13.7, Env fusion inh -3.4, MT1-MMP act inh -4.8 and MT1-MMP act inh RFP -0.6.
For COc1cc2c(cc1OC)CN(C(=S)Nc1ccccc1)CC2 the results were eIF4H inh 1.9, Rce1 inhib inactive, PABP polyA inh 0.4, CSC inhib -17.0, Yeast UUG start -32.2, MT1-MMP act inh -0.6 and MT1-MMP act inh RFP -2.4.
Cc1nn(CC(=O)N2CCN(Cc3ccccc3)CC2)c(=O)c2ccccc12 was read as eIF4H inh 1.9, Rce1 inhib inactive, PABP polyA inh 18.6, CSC inhib -17.1, Yeast UUG start -3.8, Env fusion inh -21.8, MT1-MMP act inh -29.8 and MT1-MMP act inh RFP -6.5.
For CN(C)c1ccc(-c2noc(C3CCN(S(=O)(=O)c4cccc(Cl)c4)CC3)n2)cc1 the results were eIF4H inh 2.3, Rce1 inhib inactive, PABP polyA inh 6.7, CSC inhib -13.1, Env fusion inh 56.4*, MT1-MMP act inh 18.9 and MT1-MMP act inh RFP -13.0.
O=C(CN1C(=O)NC2(CCCC2)C1=O)Nc1cccc(Cl)c1 was read as eIF4H inh 5.4, Rce1 inhib inactive, PABP polyA inh 9.6, CSC inhib -7.8, Yeast UUG start -7.7, Env fusion inh -14.0, MT1-MMP act inh 0.0 and MT1-MMP act inh RFP 4.7.
For CC(=O)NNc1nc(-c2ccccc2)cs1 the results were eIF4H inh -7.4, Rce1 inhib inactive, PABP polyA inh -9.4, CSC inhib 0.9, Env fusion inh 4.1, MT1-MMP act inh -1.5 and MT1-MMP act inh RFP -1.3.
COc1ccc(C2C(C(=O)N3CCCCC3)CCC(=O)N2c2cc(OC)c(OC)c(OC)c2)cc1 (stereo not drawn) was read as eIF4H inh 6.2, Rce1 inhib inactive, PABP polyA inh 7.3, CSC inhib -17.9, Yeast UUG start -6.3, MT1-MMP act inh 6.9 and MT1-MMP act inh RFP 2.8.
Screening Cc1csc(NC(=O)CSc2nnc(C)n2Cc2ccco2)n1 returned eIF4H inh 53.7, Rce1 inhib inactive, PABP polyA inh -5.9, CSC inhib -6.3, Yeast UUG start -22.3, Env fusion inh -17.6, MT1-MMP act inh 2.0, eIF4H inh retest -3.5, PABP polyA inh retest 1.0 and MT1-MMP act inh RFP -0.3.
C/C(=N/NC(=O)c1sc(NS(=O)(=O)c2ccccc2)nc1C)c1ccc(F)cc1 was read as eIF4H inh -2.1, Rce1 inhib inactive, PABP polyA inh 3.8, CSC inhib -7.9, Yeast UUG start 2.8, Env fusion inh 8.8, MT1-MMP act inh 2.1 and MT1-MMP act inh RFP -2.0.
For O=C(Nc1nccs1)c1ccc(COc2ccccc2Cl)o1 the results were eIF4H inh -8.4, Rce1 inhib inactive, PABP polyA inh 8.7, CSC inhib 81.2*, Yeast UUG start -12.7, Env fusion inh -11.1, MT1-MMP act inh 2.4 and MT1-MMP act inh RFP -1.8.
For Cc1cc(C(=O)CSc2nnc(NCc3ccccc3)s2)c(C)n1C the results were eIF4H inh -8.9, Rce1 inhib inactive, PABP polyA inh -3.6, CSC inhib -5.2, Yeast UUG start -16.6, Env fusion inh -87.6, MT1-MMP act inh -2.5 and MT1-MMP act inh RFP -4.6.
`O=S1(=O)CCC(NC(=S)Nc2ccc3ccccc3c2)C1` (stereo not drawn) gave eIF4H inh -4.0, Rce1 inhib inactive, PABP polyA inh 4.8, CSC inhib -7.1, Yeast UUG start -12.7, Env fusion inh 5.1, MT1-MMP act inh 2.8 and MT1-MMP act inh RFP -0.2.
`CCOc1ccc(C(=O)NC2CCN(S(=O)(=O)c3ccccc3)CC2)cc1` gave eIF4H inh -5.5, Rce1 inhib inactive, PABP polyA inh 6.1, CSC inhib -1.9, Yeast UUG start -10.5, Env fusion inh -11.6, MT1-MMP act inh -1.0 and MT1-MMP act inh RFP -1.6.
O=C(CCn1nc(-c2ccc(Cl)cc2)c2ccccc2c1=O)NCC1CCCO1 (stereo not drawn) was read as eIF4H inh 0.1, Rce1 inhib inactive, PABP polyA inh 0.6, CSC inhib -15.2, Yeast UUG start -11.6, Env fusion inh -73.4, MT1-MMP act inh -1.8 and MT1-MMP act inh RFP -2.1.
`COC(=O)c1ccc(NC(=O)Nc2ccc3c(c2)OCO3)cc1` gave eIF4H inh 0.1, Rce1 inhib inactive, PABP polyA inh -1.7, CSC inhib -7.6, Yeast UUG start 1.3, Env fusion inh -49.0, MT1-MMP act inh 3.0 and MT1-MMP act inh RFP 3.9.
For CC(C)C[C@H]1CN([C@@H](Cc2ccc(O)cc2)CN2CCC[C@@H]2CN2C(=O)C(=O)NC[C@@H]2Cc2ccccc2)C(=O)C(=O)N1CC1CCCCC1 the results were Yeast UUG start -11.1, Env fusion inh -2.8, MT1-MMP act inh 1.5 and MT1-MMP act inh RFP -2.0.
For OC(C#CCCN1CCCCC1)(c1ccccc1)C1CCCCC1 (stereo not drawn) the results were eIF4H inh -12.4, Rce1 inhib inactive, PABP polyA inh 1.1, CSC inhib -3.2, Env fusion inh 17.8, MT1-MMP act inh -2.8 and MT1-MMP act inh RFP -3.2.
CC(C)(C)NCC(O)COCc1ccc(Cl)cc1 (stereo not drawn) was read as eIF4H inh -9.0, Rce1 inhib inactive, PABP polyA inh 10.3, CSC inhib -8.5, Yeast UUG start -9.9, MT1-MMP act inh 3.0 and MT1-MMP act inh RFP -1.0.
For Cc1ncc2c(n1)-c1cc(F)ccc1SC2 the results were eIF4H inh -8.0, Rce1 inhib inactive, PABP polyA inh 5.1, CSC inhib -2.6, Yeast UUG start -5.0, Env fusion inh -3.3, MT1-MMP act inh 1.9 and MT1-MMP act inh RFP -1.4.
`CCN1CCN(c2ccc(S(=O)(=O)N3CCCCC3)cc2NC(=O)c2cccc(Cl)c2)CC1` gave Rce1 inhib inactive, CSC inhib -7.0, Env fusion inh inactive, MT1-MMP act inh 5.2 and MT1-MMP act inh RFP 0.0.
`CCCCn1nnc(N(C(=O)c2cccs2)C(=O)c2cccs2)n1` gave eIF4H inh -2.0, Rce1 inhib inactive, PABP polyA inh -2.9, Yeast UUG start -14.0, Env fusion inh -5.4, MT1-MMP act inh 5.0 and MT1-MMP act inh RFP 7.9.
For CC(C)(C)c1csc(NC(=O)c2ccccc2O)n1 the results were eIF4H inh 2.4, Rce1 inhib inactive, PABP polyA inh 4.7, CSC inhib 28.3, Yeast UUG start -11.5, Env fusion inh -56.0, MT1-MMP act inh -4.7 and MT1-MMP act inh RFP -31.3.
`O=C(Nc1ccc(F)cc1)NC1(C(=O)NCc2ccc3c(c2)OCO3)CCCCC1` gave eIF4H inh 6.4, Rce1 inhib inactive, PABP polyA inh -0.4, CSC inhib 4.3, Yeast UUG start -9.1, Env fusion inh -47.8, MT1-MMP act inh 1.2 and MT1-MMP act inh RFP 0.4.
Cc1cc2n(n1)C(c1ccco1)Nc1ccccc1-2 (stereo not drawn) was read as eIF4H inh -10.2, Rce1 inhib inactive, PABP polyA inh 2.7, CSC inhib -3.5, Yeast UUG start -16.1, Env fusion inh -55.1, MT1-MMP act inh 0.5 and MT1-MMP act inh RFP 2.6.

Source: PubChem (several laboratories)

These rows are one share of the data, so the mix of outcomes need not match the whole.
